Bfl-1 A1 inh: inhibitors of the anti-apoptotic protein A1, read as caspase activation | MEF A1-2A-BIM cells, Caspase-Glo 3/7 luminescence, 3 h; percent of clofoctol response, vehicle zero | caspase activation, % (concentration not given with the values) | 330,000 tested, 0.066% active;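 active = over half of replicate activation scores above 10%, or exactly half above 10 with the replicate mean above 10; inconclusive = replicate mean below 10 yet half the replicates above 10; inactive = over half of replicates below 10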;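 note: wells of about 30 µL received 50 nL stock; many hits fall short of the cut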
Ecoli rRNA inh: inhibits bacterial ribosomal RNA function over humanized ribosomes; 350,000 tested, 1.6% active; GFP signal change (wild-type ribosome), % (concentration not given with the values); AID 720706; E. coli WT GFP vs humanized-ribosome RFP mutants, fluorescence, 24 h; stronger effect = lower value; DMSO median 0, no signal -100;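 active = significant combined selectivity score with lowered wild-type GFP, culture density cut under 30%, mutant RFP and density less affected; inactive = any of these conditions unmet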; note: one replicate is shown; some compounds called inactive have numbers as strong as hits
MLL AF4-AF9 inh: blocks AF4 peptide binding to human AF9; inhibition, % at 10 µM; AlphaScreen, biotin-AF4 peptide binding to FLAG-AF9; P42568; 350,000 tested, 0.47% active;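 active = every replicate reaching a set inhibition limit, whatever the replicate mean, cut at about 25% in these data; inconclusive = mean inhibition reaches that limit but some replicates miss it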;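 note: 0% = plate neutral control median and 100% = total signal loss; the record names both 10 and 1 µM as test concentration; the first replicate is given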
Target sequence (P42568 whole entry, looked up): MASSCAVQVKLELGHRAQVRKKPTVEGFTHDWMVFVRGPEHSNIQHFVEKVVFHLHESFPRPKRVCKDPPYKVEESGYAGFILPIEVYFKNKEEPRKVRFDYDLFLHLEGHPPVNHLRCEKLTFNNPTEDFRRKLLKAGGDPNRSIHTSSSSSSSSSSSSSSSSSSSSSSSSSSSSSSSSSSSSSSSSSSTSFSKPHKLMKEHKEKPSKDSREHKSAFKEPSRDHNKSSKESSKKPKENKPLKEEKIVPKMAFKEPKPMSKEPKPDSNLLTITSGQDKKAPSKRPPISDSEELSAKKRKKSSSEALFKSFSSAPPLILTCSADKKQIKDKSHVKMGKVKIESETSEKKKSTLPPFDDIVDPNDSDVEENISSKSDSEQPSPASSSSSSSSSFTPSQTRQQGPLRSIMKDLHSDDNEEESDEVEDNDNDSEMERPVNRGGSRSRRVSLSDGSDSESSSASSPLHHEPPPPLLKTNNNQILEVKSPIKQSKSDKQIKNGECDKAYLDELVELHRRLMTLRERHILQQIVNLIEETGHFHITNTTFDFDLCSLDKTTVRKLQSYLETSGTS
Ecoli growth: E. coli growth inhibition. Escherichia coli growth, OD600, 23 h; stronger effect = lower value. OD600 absorbance (test concentration not listed). 330,000 tested, 0.21% active;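 active = OD600 absorbance below the run mean of sample wells minus 3.6 SD, in any replicate, cut at about 0.56 in these data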;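 note: stock transfer was 300 nL into about 60 µL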
T cruzi repl: T. cruzi replication inhibition | T. cruzi beta-gal in NIH3T3, luminescence, 90 h | inhibition, % (concentration not given with the values) | 300,000 tested, 1.4% active;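 active = mean inhibition across valid replicates above about 55%, limit read from the data; inconclusive = mean below that limit but half or more replicates reach it; inactive = mean below it, under half of replicates reach it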;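 note: signal also drops with host cell toxicity which is not excluded here; 0% = plate median of DMSO wells and 100% = zero luminescence signal; higher percent means less beta-gal luminescence so fewer parasites; stock transfer was 50 nL into about 50 µL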
FGF22 binding: shifts melting point of recombinant human FGF22; Q9HCT0; recombinant FGF22 thermal shift, SYPRO orange fluorescence; percent of sucrose octasulfate shift, DMSO zero; calls only at 9.99 µM; 340,000 tested, 1.5% active; AID 651658;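 active = melting point raised past a set limit in the mean and every replicate; inconclusive = no clear call; three in four hits are not shown here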
Beta apoptosis: blocks beta cell apoptosis; INS-1E cytokine-induced death, ATP luminescence, 48 h; percent of positive-control rescue, neutral wells zero; protection from apoptosis, % (no concentration beside the values); 300,000 tested, 0.8% active; AID 435005;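 active = all replicates at 75% or more, or half of them and the mean; inconclusive = half reach 75% but not the mean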;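 note: 0% = cytokine-treated negative control wells and 100% = positive control rescue; higher means more ATP so stronger rescue from cytokine killing; wells of about 40 µL received 100 nL stock; the first replicate is given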
UCH37 inh: inhibitors of human deubiquitinating enzyme UCH37 | purified proteasome/UCH37, Ub-AMC cleavage fluorescence | Q9Y5K5 | inhibition, % (test concentration not listed) | 330,000 tested, 0.33% active;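 active = mean of two replicates above 20%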;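 note: 0% = compound-free wells with enzyme and 100% = wells lacking proteasome; stock transfer was 100 nL into about 20 µL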
Target sequence (Q9Y5K5 whole entry, looked up): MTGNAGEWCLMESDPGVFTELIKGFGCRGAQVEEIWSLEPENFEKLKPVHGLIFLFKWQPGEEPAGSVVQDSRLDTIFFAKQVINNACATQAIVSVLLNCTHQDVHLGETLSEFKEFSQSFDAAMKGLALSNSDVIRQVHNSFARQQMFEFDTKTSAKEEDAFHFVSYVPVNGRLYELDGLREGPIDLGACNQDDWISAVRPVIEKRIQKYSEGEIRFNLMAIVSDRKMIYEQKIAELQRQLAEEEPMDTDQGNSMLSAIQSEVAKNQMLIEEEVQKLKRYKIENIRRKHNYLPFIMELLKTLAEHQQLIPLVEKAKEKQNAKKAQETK
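Material: human UCH37 enzyme supplied as purified proteasome complex / Amount: 0.15 nM proteasome as dispensed / Buffer or medium: pH 7.4 Tris-HCl (50 mM) with ovalbumin, ATP-MgCl2, DTT / Times: preincubation 30 min, reaction 25 min, room temperature / Technique: AMC fluorescence from Ub-AMC cleavage, excitation 355 nm, emission 460 nm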
Ecoli rRNA inh OD600: further read-out of Ecoli rRNA inh, marked with its call; OD600 change, %; measured here: OD600 growth;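 optical density of the mix in the first replicate; 0 = DMSO median and -100 = no signal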
Ecoli rRNA inh RFP: further read-out of Ecoli rRNA inh, marked with its call; RFP signal change, %; measured here: RFP humanized mutant strains;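 first replicate; 0 = DMSO median and -100 = no signal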
Active calls of the source: *; i = inactive; u = inconclusive; x = no result given.

smiles,Bfl-1 A1 inh,Ecoli rRNA inh,Ecoli rRNA inh OD600,Ecoli rRNA inh RFP,MLL AF4-AF9 inh,Ecoli growth,T cruzi repl,FGF22 binding,Beta apoptosis,UCH37 inh
O=c1oc(-c2ccc(F)cc2)nc2ccsc12,-2.1,x,x,x,x,0.735,-8.6,x,-2.9,2.2
CC(=O)Nc1ccc(NC(=O)c2cccc(S(=O)(=O)N3CCCCCC3)c2)cc1,-0.8,1.7,14.7,3.4,-2.4,0.724,x,i,-1.7,-7.4
O=S(=O)(c1cccs1)N1CCN(Cc2ccccc2)CC1,-0.5,x,x,x,x,0.652,0.5,x,-5.4,1.5
O=C1CCC(c2ccc3c(c2)CCC3)=NN1,-0.9,5.0,9.9,-1.1,0.6,0.672,-2.2,i,1.2,1.2
COC(=O)C[C@H]1c2cc(F)ccc2S(=O)(=O)N1Cc1ccccc1OC,0.7,-1.2,3.3,-0.9,-33.4,x,-27.3,i,4.3,0.2
O=C(CCCN1C(=O)/C(=C\c2cccs2)SC1=S)Nc1ccc(O)cc1C(=O)O,1.3,-22.0,-17.9,-4.7,1.8,0.697,-29.2,i,-4.3,8.2
O=C(CSc1ccc2nnc(-c3ccc(F)cc3)n2n1)N1CCCc2ccccc21,0.5,6.3,-2.1,7.6,-6.1,0.713,9.6,i,8.4,-3.8
C[C@H](NC(=O)[C@@H]1Cc2ccccc2CN1)C(=O)Nc1ccc2c(c1)OCO2,0.1,1.7,7.3,-0.5,3.3,0.661,3.4,i,2.6,-0.2
CCN1CCN(c2ccc(S(=O)(=O)N3CCOCC3)cc2NC(=O)c2ccc(C(F)(F)F)cc2)CC1,-0.2,4.9,1.5,0.7,-4.8,0.686,40.3,i,8.0,3.9
COc1ccc(NC(=O)Cn2nnc(C(=O)NCc3ccccc3)c2N)c(OC)c1,0.6,4.7,1.3,0.1,-1.1,0.705,-12.1,i,5.6,5.7

Continued:
smiles,Bfl-1 A1 inh,Ecoli rRNA inh,Ecoli rRNA inh OD600,Ecoli rRNA inh RFP,MLL AF4-AF9 inh,Ecoli growth,T cruzi repl,FGF22 binding,Beta apoptosis,UCH37 inh
Cn1c(SCC(=O)NC2CCCC2)nnc1-c1ccccn1,-0.9,13.5,9.2,-2.1,-0.5,0.631,-14.2,i,8.2,0.8
O=C(CN1CCN(c2ccccn2)CC1)N(c1ccccc1)c1ccc2ccccc2c1,-0.5,x,x,x,x,0.762,x,x,3.9,0.9
O=C(NNC(=O)c1ccccc1)C(=O)N1CCCCC1,0.3,x,x,x,x,0.67,-8.3,x,-0.6,2.0
CC1(c2ccc(Cl)cc2)NC(=S)N2C1NC(=S)N2c1ccccc1 (centres undefined),0.1,-7.5,-16.8,6.1,11.7,0.715,-11.5,i,-2.9,3.4
CC1(C)Cc2c(C#N)c(N3CCOCC3)nc(-c3ccccc3)c2CO1,0.0,x,x,x,x,0.789,26.1,x,-1.7,-139.4
Cc1ccc(OCCN2C(=O)S/C(=C\c3ccc(C)o3)C2=O)cc1,1.2,-26.6,26.9,12.9,0.9,0.696,-9.8,i,-7.0,5.3
O=C(CCC1CCCN(C(=O)c2ccco2)C1)NCc1ccccc1F (centres undefined),-0.3,6.0,8.9,3.9,-1.6,0.726,-1.4,i,-0.5,1.8
COc1ccc(-c2nc(NC(=O)C3=NN(c4cccc(C)c4)C(=O)CC3)sc2C)cc1,1.1,-1.3,-7.4,-3.4,0.1,0.745,1.7,i,7.2,2.2
COC(=O)C(C(=O)OC)C(c1ccccc1)C(C(=O)c1ccccc1)[N+](=O)[O-] (centres undefined),-0.9,7.2,8.0,0.1,6.4,0.63,-10.3,i,-4.0,3.9
Cc1ccc(C2=NNC(C(O)C(O)C(O)CO)S2)cc1 (centres undefined),1.2,13.4,8.8,5.2,x,x,-8.5,x,-3.6,x

More results
smiles,Bfl-1 A1 inh,Ecoli rRNA inh,Ecoli rRNA inh OD600,Ecoli rRNA inh RFP,MLL AF4-AF9 inh,Ecoli growth,T cruzi repl,FGF22 binding,Beta apoptosis,UCH37 inh
CN(Cc1ccc(F)cc1)C(=O)c1ccc(NS(=O)(=O)c2ccc3[nH]c(=O)[nH]c3c2)cc1,-0.8,11.7,4.5,1.9,0.8,0.692,-5.9,i,1.1,3.2
COc1cccc(NC(=O)CN(C)C(=O)c2cccc(S(=O)(=O)N3CCN(c4ccc(F)cc4)CC3)c2)c1,-1.2,-5.5,-16.8,2.1,0.6,0.668,5.7,i,25.0,4.1
Cc1ccc(C(=O)CC(=O)COc2ccc(Cl)cc2C)cc1,-0.5,-18.2,-6.7,17.6,-1.3,0.644,12.8,i,4.3,1.8
Cc1cc(N/N=C/c2ccco2)c2ccccc2n1,-0.6,16.5,4.4,5.9,-3.5,x,-4.7,i,-8.7,x
CCOc1ccc(N(CC(=O)NCc2ccc(Cl)cc2)S(=O)(=O)c2ccccc2)cc1,0.0,-0.8,0.8,0.3,-1.4,0.672,31.0,i,3.4,1.3
O=C(CN1CCN(S(=O)(=O)c2cccc(F)c2)CC1)NCC1(N2CCOCC2)CCCCC1,x,-0.5,6.3,0.7,-1.9,0.684,x,i,x,0.4
CCc1nc2n[nH]c(N)c2c2c1CCCC2,u,x,x,x,x,0.658,6.9,x,-5.2,3.9
COc1ccc(Nc2nnc(SCc3cn4c(C)cccc4n3)s2)cc1,0.7,x,x,x,x,0.604,-2.5,x,-9.6,-0.8
O=CN1CCN(C(=O)c2ccccc2F)CC1,0.0,x,x,x,x,0.652,0.7,x,2.2,2.1
CC(C)CCNC(=O)C(=O)Nc1cc2c3c(c1)CCC(=O)N3CCC2,0.4,-0.2,6.9,-0.5,-1.6,0.677,12.1,i,1.6,0.4

More compounds
smiles,Bfl-1 A1 inh,Ecoli rRNA inh,Ecoli rRNA inh OD600,Ecoli rRNA inh RFP,MLL AF4-AF9 inh,Ecoli growth,T cruzi repl,FGF22 binding,Beta apoptosis,UCH37 inh
O=C(NC12CC3CC(CC(C3)C1)C2)c1cnccn1,0.6,x,x,x,x,0.713,-14.3,x,-5.2,-0.9
COc1ccc(N(CC(=O)N2CCN(C)CC2)S(=O)(=O)c2ccccc2)cc1,0.3,4.8,13.3,-4.2,0.6,0.664,8.1,i,7.0,-3.6
O=C(CN1CCC(NC(=O)c2ccccc2Cl)CC1)NCc1ccccc1,-0.8,5.4,5.7,1.4,1.3,0.668,8.7,i,-2.5,4.9
Cc1ccc(OCCCCn2cnc3ccccc32)c(C)c1,0.0,x,x,x,x,0.662,-44.3,x,60.2,4.2
CN(C)c1nc(N(C)C)c2cnn(C)c2n1,x,x,x,x,-1.9,0.692,x,i,x,0.5
CC(/C=C1\SC(=S)N(CC(=O)O)C1=O)=C\c1ccccc1,0.5,6.4,0.0,-9.8,-1.2,0.698,-2.1,i,-5.5,9.4
CCOc1ccc(CCNC(=O)c2ccc3ccccc3n2)cc1OCC,0.3,-6.8,-22.2,0.2,1.0,0.651,7.9,i,-4.4,2.8
O=C(Nc1c2c(nn1-c1ccc(F)cc1)CSC2)c1ccc(S(=O)(=O)N2CCOCC2)cc1,1.5,x,x,x,x,0.707,2.0,x,-1.2,2.8
CCN(CC)c1ccc(NC(=O)c2ccc(=O)[nH]c2)cc1S(=O)(=O)Nc1ccccc1OC,-0.4,-35.4,-59.3,-4.7,-13.3,0.65,-5.6,i,16.0,-4.8
CCC1Sc2ccc(S(=O)(=O)CCC(=O)Nc3cccc(Br)c3)cc2NC1=O (centres undefined),-0.5,-56.0,-65.4,-9.4,-0.7,0.681,-0.9,i,-1.0,3.7

(continued)
smiles,Bfl-1 A1 inh,Ecoli rRNA inh,Ecoli rRNA inh OD600,Ecoli rRNA inh RFP,MLL AF4-AF9 inh,Ecoli growth,T cruzi repl,FGF22 binding,Beta apoptosis,UCH37 inh
CCN(CC)S(=O)(=O)c1ccc(N/N=C(\C)c2ccncc2)c([N+](=O)[O-])c1,-0.1,6.6,4.3,-0.7,-0.9,x,31.7,i,5.6,x
COc1nc(Cl)cn(-c2ccc(Cl)cc2)c1=O,0.3,x,x,x,x,0.668,-12.1,x,0.3,-0.9
COc1ccc(/C=C(/NC(=O)c2ccccc2)C(=O)N/N=C/c2cccs2)cc1OC,0.0,-2.4,1.5,-7.4,0.3,x,-3.2,i,-5.5,x
O=C(NCc1cccnc1)c1cnn2ccccc12,-0.4,-2.3,1.3,1.2,-5.3,0.707,-2.7,i,3.4,-4.6
Fc1ccc(Sc2nc(-c3ccccc3)nnc2C(F)(F)F)cc1,1.2,x,x,x,x,0.744,32.2,x,-11.5,3.1
Cc1noc(-c2ccccc2OC(=O)c2ccccc2)n1,0.7,x,x,x,x,0.718,-4.2,x,-9.2,1.9
c1ccc2nc(-c3ccc(-n4ccnc4)cc3)ccc2c1,-7.2,-25.6,-45.5,-7.0,-0.6,0.584,53.1,i,0.1,-0.2
N=c1oc2ccccc2cc1C(=O)NC1CCCCCC1,-2.1,1.3,-2.3,3.4,2.0,0.696,-9.3,i,-9.3,3.8
CCOc1ccc(CN2CCN(S(=O)(=O)c3ccc(NC(C)=O)cc3)CC2)cc1,-0.2,-16.2,-18.0,-24.1,5.6,0.656,5.5,i,-1.3,0.7
CCCN(CCC)C(=S)NC(=O)c1ccc(Cl)cc1Cl,-0.5,x,x,x,x,0.657,-13.2,x,11.4,5.6

Following part:
smiles,Bfl-1 A1 inh,Ecoli rRNA inh,Ecoli rRNA inh OD600,Ecoli rRNA inh RFP,MLL AF4-AF9 inh,Ecoli growth,T cruzi repl,FGF22 binding,Beta apoptosis,UCH37 inh
O=C(CSc1nc2nn(-c3ccccc3)c(=O)c-2c2n1CCCCC2)Nc1ccc(F)c(F)c1,-1.3,-1.5,3.1,-0.7,9.1,0.689,x,i,2.5,7.0
Cc1nn(C)c(C)c1S(=O)(=O)N(CC(=O)Nc1ccccn1)c1ccc(C(C)C)cc1,x,-0.2,-1.5,-2.9,5.2,0.744,-0.1,i,x,4.8
COc1ccccc1N1CCN(Cc2ccc(C(=O)O)cc2)CC1,-0.5,13.9,5.2,4.5,-4.3,0.676,-17.1,i,-0.7,1.5
CCC(=O)c1ccc(N2CCCCCC2)c(F)c1,-0.4,x,x,x,x,0.71,2.4,x,3.1,-0.7

Assay outcomes: PubChem BioAssay, several laboratories

These rows are one share of the data. The share of hits here may be higher or lower than overall.
